Autofluor counter – compound fluorescence in toxin protease inhibitor counterscreen. 360,000 compounds, 3.1% hits. compound autofluorescence counterscreen, microsphere flow cytometry; stronger effect = higher value. AID 624483. fluorescence intensity (no concentration beside the values);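 active = at least 3 SD above the mean of all compounds, about 16000 in these data; inconclusive = too few beads counted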;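 also: 100 nL of 1 mM stock went into each well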
PrP UTR inh – suppresses PrP 5' UTR mRNA reporter expression; cell-based PrP 5' UTR mRNA reporter, plate reader; inhibition, % (concentration not given with the values); 340,000 compounds, 0.35% hits; AID 488862;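 active = every replicate at 50% or more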;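 also: 0 = median of the neutral control wells; tested in H4 reporter cells; numbers are from one replicate; inactives centre near -14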
Mtb hypoxia inh – reduces hypoxia-regulated biosensor signal in M. tuberculosis | M. tuberculosis hypoxia-regulated fluorescent reporter, fluorescence | fluorescence inhibition, % (test concentration not listed) | 300,000 compounds, 0.1% hits | AID 1159583;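 active = 35 to 45% if threefold the growth effect, above 45% if 1.5-fold the growth effect; inactive = the rest, general growth blockers included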;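 also: wells of about 50 µL received 100 nL stock; 0% = vehicle wells and 100% = reference inhibitor wells; whole bacteria with a GFP reporter of the hypoxia response; strong numbers were not always called active; many hits fall short of the cut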
ugtP null kill – kills S. aureus RN4220 lacking UgtP. S. aureus RN4220 ugtP deletion, OD600 growth, 16 h; some inactives read as strong as hits. growth inhibition, % (concentration not given with the values). 330,000 compounds, 0.54% hits;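 active = z-score under -3 and OD600 up to 0.15 on both plates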;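 also: plate controls were untreated wells for no effect and antibiotic for full effect; wells of about 80 µL received 100 nL stock; the first replicate is given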
Sa RN4220 lethal – kills Staphylococcus aureus RN4220; S. aureus RN4220 growth, OD600, 16 h; inhibition, % (concentration not given with the values); 330,000 compounds, 0.33% hits; AID 1259311;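 active = z-score of -3 or lower and OD600 up to 0.18 on both plates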;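 also: plate controls were untreated cells for no effect and reference antibiotic for full effect; stock transfer was 100 nL into about 80 µL; one replicate is shown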
BJeLR viability – BJeLR cell viability loss. 300,000 compounds, 0.17% hits. inhibition, % (test concentration not listed). AID 1554. BJeLR (HRASV12) viability, CellTiter-Glo ATP luminescence, 48 h; reference of the scale not given here;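 active = replicate mean above 50%; inconclusive = above 50% but judged a plate artefact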;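 also: 50 nL library stock added to about 25 µL; numbers are from one replicate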
Mtb hypoxia inh growth – also measured in Mtb hypoxia inh; calls as there; growth inhibition, %; measured here: M. tuberculosis growth (absorbance);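 0% = vehicle and 100% = reference antibiotic; read after six days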
Active calls of the source: *.

Screening Cc1cc(C)c(-n2c(O)c(/C=N/NC(=O)c3ccncc3)c(=O)[nH]c2=O)c(C)c1 returned Autofluor counter 4185, PrP UTR inh -7, Mtb hypoxia inh 3, ugtP null kill -1, Sa RN4220 lethal 0.9, BJeLR viability -2 and Mtb hypoxia inh growth 13.
For COc1ccc(CC(=O)N(C)Cc2cccc(F)c2)cc1S(=O)(=O)N1CCOCC1 the results were PrP UTR inh -6, Mtb hypoxia inh 5, ugtP null kill 0, Sa RN4220 lethal 0.8, BJeLR viability 0 and Mtb hypoxia inh growth 0.
Cc1cccc(C)c1OCc1nnc2c3cnn(C)c3ncn12 was read as Autofluor counter inconclusive, PrP UTR inh -18, Mtb hypoxia inh 0, ugtP null kill 2, Sa RN4220 lethal 6.6, BJeLR viability 0 and Mtb hypoxia inh growth -1.
COc1ccc(Cn2c(-c3ccc(Br)cc3)c[n+]3ccccc23)cc1 was read as Autofluor counter 2025, PrP UTR inh -78, Mtb hypoxia inh 7, ugtP null kill 0, Sa RN4220 lethal 3.8, BJeLR viability 17 and Mtb hypoxia inh growth 12.
For CSc1nnc2c3ccccc3c3ccccc3c2n1 the results were Autofluor counter 3849, PrP UTR inh -22, Mtb hypoxia inh 0, ugtP null kill -11, Sa RN4220 lethal 2.0, BJeLR viability -3 and Mtb hypoxia inh growth 6.
For CCc1ccccc1N1CN(Cc2ccco2)CNC1=S the results were Autofluor counter 3642, PrP UTR inh -8, Mtb hypoxia inh 6, ugtP null kill 8, Sa RN4220 lethal 5.4, BJeLR viability -10 and Mtb hypoxia inh growth 8.
COc1ccccc1CNC(=O)COc1ccc([N+](=O)[O-])cc1 was read as Autofluor counter 4581, PrP UTR inh -3, Mtb hypoxia inh -1, ugtP null kill 0, Sa RN4220 lethal 0.8, BJeLR viability -12 and Mtb hypoxia inh growth 8.
For Cc1n[nH]c(=O)c2c1nnn2Cc1ccccc1Cl the results were Autofluor counter 2902, PrP UTR inh -18, Mtb hypoxia inh 16, ugtP null kill 15, Sa RN4220 lethal 3.8, BJeLR viability 7 and Mtb hypoxia inh growth -3.
`CCCOc1cccc(-c2nn(-c3ccccc3)cc2/C=C(\C#N)C(=O)NCCCn2ccnc2)c1` gave Autofluor counter 3465, PrP UTR inh -27, Mtb hypoxia inh 1, ugtP null kill 20, Sa RN4220 lethal 7.8, BJeLR viability -13 and Mtb hypoxia inh growth 8.
COc1cc(C=NNC2=NC(C)(C)Cc3ccccc32)cc(OC)c1OC was read as Mtb hypoxia inh -12, ugtP null kill 0, Sa RN4220 lethal 2.3 and Mtb hypoxia inh growth -1.
`CCOc1ccccc1NC(=O)CSc1nnc(-c2ccccc2Cl)n1Cc1ccco1` gave Autofluor counter 3501, PrP UTR inh -5, ugtP null kill 11, Sa RN4220 lethal 3.2 and BJeLR viability -8.
For COc1ccccc1N(CC(=O)NC(C)(C)C)C(=O)CCC(=O)Nc1nccs1 the results were Autofluor counter 3806, PrP UTR inh -16, Mtb hypoxia inh -1, ugtP null kill 5, Sa RN4220 lethal 3.0, BJeLR viability -5 and Mtb hypoxia inh growth 5.
Screening CCOC(=O)C1=C(CCc2ccccc2)NC(=O)NC1c1ccc(Br)cc1 (configuration not stated) returned Autofluor counter 3550, PrP UTR inh -11, Mtb hypoxia inh -4, ugtP null kill 1, Sa RN4220 lethal -1.4, BJeLR viability -8 and Mtb hypoxia inh growth -11.
Cc1cc(C(=O)NCCCN2CCN(c3cc(Cl)ccc3C)CC2)n(-c2ccccc2)n1 was read as Autofluor counter 6344, PrP UTR inh -40, Mtb hypoxia inh 1, ugtP null kill -1, Sa RN4220 lethal -9.4, BJeLR viability -3 and Mtb hypoxia inh growth 10.
Screening CCCCOc1ncnc2c1[nH]c1ccccc12 returned Autofluor counter 2726, PrP UTR inh -38, Mtb hypoxia inh 15, ugtP null kill -11, Sa RN4220 lethal 9.2, BJeLR viability -1 and Mtb hypoxia inh growth 3.
Cc1ccc(NC(=O)CCNC(=O)c2ccco2)cc1 was read as Autofluor counter 2001, PrP UTR inh -15, Mtb hypoxia inh 14, ugtP null kill 7, Sa RN4220 lethal 5.6, BJeLR viability 4 and Mtb hypoxia inh growth 7.
CCN1CCCC1CNC(=O)C(=O)NCc1ccccc1 (configuration not stated) was read as Autofluor counter 4160, PrP UTR inh -12, Mtb hypoxia inh 13, ugtP null kill 3, Sa RN4220 lethal 4.1, BJeLR viability 7 and Mtb hypoxia inh growth 4.
`c1cc[n+](CCC[n+]2ccccc2)cc1` gave Autofluor counter 3835, PrP UTR inh -9, Mtb hypoxia inh 0, ugtP null kill 18, Sa RN4220 lethal -1.7, BJeLR viability 2 and Mtb hypoxia inh growth 9.
For CCOC(=O)C1=C(C)NC(=O)CC1c1ccccc1 (configuration not stated) the results were Autofluor counter 3323, PrP UTR inh -29, ugtP null kill 10, Sa RN4220 lethal -1.7 and BJeLR viability 5.
`CN(C(=O)COc1cccc(Br)c1)C1CCS(=O)(=O)C1` (configuration not stated) gave Autofluor counter 5845, PrP UTR inh -15, Mtb hypoxia inh 1, ugtP null kill 2, Sa RN4220 lethal 1.1, BJeLR viability 2 and Mtb hypoxia inh growth 1.
For O=C(Nc1ccc2c(c1)OCCO2)C1CCN(S(=O)(=O)c2ccc(Br)s2)CC1 the results were Autofluor counter 2752, PrP UTR inh -22, ugtP null kill -5, Sa RN4220 lethal -6.1 and BJeLR viability -4.
`C=CCN1CCN(C(CCC)c2nnnn2Cc2ccco2)CC1` (configuration not stated) gave Autofluor counter 4504, PrP UTR inh -17, Mtb hypoxia inh 7, ugtP null kill 5, Sa RN4220 lethal 6.1, BJeLR viability 0 and Mtb hypoxia inh growth 2.
`Cc1nonc1C(=O)N1CCCC(N2CCN(c3ccc(F)cc3)CC2)C1` (configuration not stated) gave Autofluor counter 5514, PrP UTR inh 8, Mtb hypoxia inh 19, ugtP null kill 18, Sa RN4220 lethal 3.3, BJeLR viability -9 and Mtb hypoxia inh growth -2.
For CCCN(CCC)CCN1C(=O)C2C(C(=O)Nc3ccc(C)cc3)C3C=CC2(O3)C1C(=O)NC1CCCCC1 (configuration not stated) the results were Autofluor counter 2903, PrP UTR inh -22, Mtb hypoxia inh 13, ugtP null kill 8, Sa RN4220 lethal 0.9, BJeLR viability -1 and Mtb hypoxia inh growth 0.
`Cc1cc(C)c2nc(N(CCN(C)C)C(=O)/C=C/c3cccs3)sc2c1` gave Autofluor counter 4455, PrP UTR inh 6, Mtb hypoxia inh -8, ugtP null kill -26, Sa RN4220 lethal -9.3, BJeLR viability -5 and Mtb hypoxia inh growth -8.
For Cc1ccc(NC2=NCCCCC2)cc1C the results were Autofluor counter 9825, PrP UTR inh 14, Mtb hypoxia inh 3, ugtP null kill 3, Sa RN4220 lethal -0.4, BJeLR viability 10 and Mtb hypoxia inh growth 4.
Cc1ccc(NC(=O)C(C)OC(=O)Cn2cnc3ccccc3c2=O)cc1 (configuration not stated) was read as Autofluor counter 6399, PrP UTR inh -20, Mtb hypoxia inh 6, ugtP null kill 6, Sa RN4220 lethal 1.7, BJeLR viability -7 and Mtb hypoxia inh growth -6.
For CCOC(=O)C1CCN(S(=O)(=O)c2ccc3[nH]c(=O)oc3c2)CC1 the results were Autofluor counter 4439, PrP UTR inh -41, Mtb hypoxia inh 11, ugtP null kill 3, Sa RN4220 lethal 6.8, BJeLR viability -2 and Mtb hypoxia inh growth 6.
Screening COc1ccc(Br)c(C(=O)N2CCN(S(=O)(=O)c3cccs3)CC2)c1 returned Autofluor counter 4346, PrP UTR inh -6, Mtb hypoxia inh 1, ugtP null kill 21, Sa RN4220 lethal 4.4, BJeLR viability 19 and Mtb hypoxia inh growth 15.
For CC(C)c1ccc(NC(=O)C(c2ccc3c(c2)OCO3)N2CCCCC2)cc1 (configuration not stated) the results were Autofluor counter 5815, PrP UTR inh -18, Mtb hypoxia inh 2, ugtP null kill 10, Sa RN4220 lethal -1.5, BJeLR viability 3 and Mtb hypoxia inh growth 1.
`CCCCC(=O)Nc1nn(CCC)c2nc3ccccc3cc12` gave Autofluor counter 2505, PrP UTR inh -7, ugtP null kill -4, Sa RN4220 lethal 0.5 and BJeLR viability -1.
For Cc1c(-c2ccccc2)[n+](=O)c2c(n1[O-])CCC2 the results were Autofluor counter 3832, PrP UTR inh -20, Mtb hypoxia inh 10, ugtP null kill 10, Sa RN4220 lethal -0.9, BJeLR viability -3 and Mtb hypoxia inh growth 5.
Screening COc1cc2c(cc1OC)C(=O)CCS2 returned Autofluor counter 3010, PrP UTR inh -15, Mtb hypoxia inh 9, ugtP null kill -7, Sa RN4220 lethal -12, BJeLR viability -7 and Mtb hypoxia inh growth 11.
`O=C(Nc1cccc(Cl)c1)C1=CC=CN2CCS(=O)(=O)N=C12` gave Autofluor counter 4020, PrP UTR inh -16, Mtb hypoxia inh 6, ugtP null kill -1, Sa RN4220 lethal 3.2 and Mtb hypoxia inh growth 4.
`CN(C)S(=O)(=O)c1cccc(NC(=O)c2ccc(S(=O)(=O)N3CCCCC3)cc2)c1` gave Autofluor counter inconclusive, PrP UTR inh -9, Mtb hypoxia inh -8, ugtP null kill -3, Sa RN4220 lethal 1.7, BJeLR viability -11 and Mtb hypoxia inh growth -4.
For CCOC(=O)Nc1cccc(OCC(=O)Nc2ccc3c(c2)CCC3)c1 the results were Autofluor counter inconclusive, PrP UTR inh -9, Mtb hypoxia inh 7, ugtP null kill 2, Sa RN4220 lethal 13 and Mtb hypoxia inh growth 10.
Screening COc1cc(NC(=O)COc2ccc(Cl)cc2)ccc1NC(=O)C(C)C returned Autofluor counter 3863, PrP UTR inh -7, Mtb hypoxia inh 9, ugtP null kill 8, Sa RN4220 lethal 3.6, BJeLR viability 1 and Mtb hypoxia inh growth -6.
For Cc1cc(OC(=O)c2ccc(S(=O)(=O)N3CCCCC3)cc2)c([N+](=O)[O-])c(=O)[nH]1 the results were Autofluor counter 2342, PrP UTR inh -19, Mtb hypoxia inh -2, ugtP null kill -2, Sa RN4220 lethal -0.7, BJeLR viability 0 and Mtb hypoxia inh growth -2.
Oc1ccccc1C=NNc1nc2ccccc2o1 was read as Mtb hypoxia inh 13, ugtP null kill 7, Sa RN4220 lethal -3.0 and Mtb hypoxia inh growth -1.
`CN(C(=O)CSc1ccc2c(c1)OCCO2)c1ccccc1` gave Autofluor counter inconclusive, PrP UTR inh -55, Mtb hypoxia inh 1, ugtP null kill 4, Sa RN4220 lethal -1.1 and Mtb hypoxia inh growth 2.
`CN1CCN2c3ccccc3CC3(C(=O)N(C)C(=O)N(C)C3=O)C2C1` (configuration not stated) gave Autofluor counter 3652, PrP UTR inh -5, Mtb hypoxia inh 11, ugtP null kill 2, Sa RN4220 lethal 2.7, BJeLR viability -7 and Mtb hypoxia inh growth 17.
Cc1ccc2c(c1)N(CCC(=O)NCc1cccs1)C(=O)C(C)O2 (configuration not stated) was read as Autofluor counter 3230, PrP UTR inh -1, Mtb hypoxia inh -89, ugtP null kill 0, Sa RN4220 lethal 1.1, BJeLR viability -6 and Mtb hypoxia inh growth -17.
`Cc1[nH]c2ccc(F)cc2c1CCN(Cc1ccncc1)C(=S)Nc1cccc(F)c1` gave Autofluor counter 5976, PrP UTR inh -14, Mtb hypoxia inh -1, ugtP null kill 3, Sa RN4220 lethal 5.8, BJeLR viability 4 and Mtb hypoxia inh growth 5.
`COc1ccc2nc(NC(=O)c3ccoc3C)sc2c1` gave Autofluor counter 21922*, PrP UTR inh -105, Mtb hypoxia inh 4, ugtP null kill -20, Sa RN4220 lethal -0.5, BJeLR viability 75* and Mtb hypoxia inh growth 4.

Part of the list above in order of molecular weight, falling.
`CN(C(=O)CSc1ccc2c(c1)OCCO2)c1ccccc1` gave Autofluor counter inconclusive, PrP UTR inh -55, Mtb hypoxia inh 1, ugtP null kill 4, Sa RN4220 lethal -1.1 and Mtb hypoxia inh growth 2.
`COc1ccc2nc(NC(=O)c3ccoc3C)sc2c1` gave Autofluor counter 21922*, PrP UTR inh -105, Mtb hypoxia inh 4, ugtP null kill -20, Sa RN4220 lethal -0.5, BJeLR viability 75* and Mtb hypoxia inh growth 4.
Oc1ccccc1C=NNc1nc2ccccc2o1 was read as Mtb hypoxia inh 13, ugtP null kill 7, Sa RN4220 lethal -3.0 and Mtb hypoxia inh growth -1.
